RGS16-Gao: modulators of RGS16 binding to Galphao, primary screen, biochemical, human proteins, multiplexed bead flow cytometry | bead-based flow cytometry RGS16-Galphao binding, fluorescence; actives lie on both sides | binding response (% of control), % at 10 µM | 220,000 tested, 0.38% active;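 active means below 25% or above 175%, edge rows of some plates excepted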;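 further: Galphao activated by GDP with aluminum fluoride before binding; 100% = wells without compound and 0% = beads without RGS; some results beyond the cut were filed as inactive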
Target sequence (O15492 whole entry, looked up): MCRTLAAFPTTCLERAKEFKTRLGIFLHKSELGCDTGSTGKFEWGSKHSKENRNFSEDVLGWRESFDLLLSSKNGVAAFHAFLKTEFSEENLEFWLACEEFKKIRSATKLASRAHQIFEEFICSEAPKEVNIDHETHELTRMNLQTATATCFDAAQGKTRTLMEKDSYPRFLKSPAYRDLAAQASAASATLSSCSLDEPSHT
Target sequence (P09471 whole entry, looked up): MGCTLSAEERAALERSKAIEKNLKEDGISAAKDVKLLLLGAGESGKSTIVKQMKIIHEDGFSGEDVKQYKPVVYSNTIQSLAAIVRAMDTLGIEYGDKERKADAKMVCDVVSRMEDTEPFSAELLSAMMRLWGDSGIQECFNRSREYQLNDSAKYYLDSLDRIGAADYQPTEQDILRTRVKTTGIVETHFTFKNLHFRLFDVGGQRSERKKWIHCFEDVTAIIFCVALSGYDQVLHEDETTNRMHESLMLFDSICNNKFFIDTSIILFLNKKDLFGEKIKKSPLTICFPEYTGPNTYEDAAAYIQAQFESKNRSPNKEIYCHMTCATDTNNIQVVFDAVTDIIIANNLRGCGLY
HSV augment: enhancers of HSV replication in host cells, fold increase, host cell viability; maximum fold increase; AID 1956, 2009; 220,000 tested, 0.005% active; HSV replication augmentation in cells;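 active means peak rise of 1.5-fold or more in the series; tested in PC3 cells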;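 further: first round at 10 µM; read as green reporter fluorescence; hits show the peak of a series up to 25 µM; 1 = signal of infected wells without compound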
INS promoter inh: inhibitors of insulin promoter-driven GFP, primary screen, imaging, TRM-6 cells (human fetal islet line), eGFP reporter, cell count. reporter expression induced with tamoxifen. inhibition, % at 2 µM. 130,000 tested, 0.9% active. AID 1273, 2008;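 active means inhibition above the mean plus 3 SD, with well images judged a real hit on visual review, cut at about 60% in these data, passing the limit was not always enough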
GALR2 agonist: GALR2 receptor agonists, primary screen, cell-based; Galanin receptor type 2 (Homo sapiens), O43603; GALR2-expressing cells, agonist activation read-out; activation, %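 (tested at 5 µM)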; 140,000 tested, 0.48% active; AID 803, 2007;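 active means above mean plus 3 SD of all compounds, about 5% in these data, not always enough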;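 further: 0% = vehicle buffer wells and 100% = reference agonist at full effect; tested in CHO reporter cells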
Target sequence (O43603 whole entry, looked up): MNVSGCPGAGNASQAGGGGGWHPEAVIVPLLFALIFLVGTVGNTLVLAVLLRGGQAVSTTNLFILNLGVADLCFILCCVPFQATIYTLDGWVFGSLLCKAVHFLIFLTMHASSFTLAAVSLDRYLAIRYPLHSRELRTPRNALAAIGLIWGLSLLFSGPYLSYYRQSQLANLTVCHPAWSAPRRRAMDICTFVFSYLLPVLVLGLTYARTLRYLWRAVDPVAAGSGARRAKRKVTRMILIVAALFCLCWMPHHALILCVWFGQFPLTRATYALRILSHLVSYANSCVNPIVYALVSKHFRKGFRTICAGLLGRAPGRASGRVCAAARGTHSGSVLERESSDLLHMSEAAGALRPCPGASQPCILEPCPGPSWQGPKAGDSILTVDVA
PKD1 inh: inhibitors of human PKD1 kinase, biochemical, fluorescence polarization | Serine/threonine-protein kinase D1 (Homo sapiens), Q15139 | PKD1 kinase fluorescence polarization assay | inhibition, %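 (about 10 µM by stock and volumes)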 | 200,000 tested, 0.056% active | AID 797, 2007;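 active means inhibition of 50% or more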;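 further: controls were vehicle for no effect and a reference inhibitor for full effect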
INS promoter inh cell count: recorded beside INS promoter inh, whose call it bears; normalized cell count, %; measured here: cell count, toxicity; reference of the scale not given here;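 cells exposed to compound for 48 h; stained nuclei by imaging scaled within each plate; lower means fewer cells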
HSV augment primary fold: recorded beside HSV augment, whose call it bears; fold increase; compound at 10 µM; measured here: primary screen fold increase 10 uM; tested in PC3 cells;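 GFP signal in the first replicate; 1 = infected wells without compound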
The depositor's hits bear a star; i = inactive; . = no result given; & = joins results of further samples.

SMILES	RGS16-Gao	HSV augment	HSV augment primary fold	INS promoter inh	INS promoter inh cell count	GALR2 agonist	PKD1 inh
COc1ccc(S(=O)(=O)N2CCC(=O)N2)cc1	103	i	0.93	33	111	-0.9	-1
COc1ccc(-c2cc(C3CC3)nc(SCC(=O)c3cccs3)c2C#N)cc1	286	i	1.2	.	.	-0.5	-5
CC1Oc2ccccc2C=C1/C=N/NC(=O)[C@@H](C)NC(=O)OC(C)(C)C (some centres undefined)	98	i	0.94	.	.	.	.
Cc1ccc2nc(-c3ccc(NC(=O)Cc4cccs4)cc3)[nH]c2c1	97	i	0.65	33	102	1.5	-7
CN(C)N1C(N)=C(C#N)C(c2cccnc2)C2=C1CCCC2=O (centres undefined)	139	i	0.97	34	82	-0.9	-8
CC1C=CC(C)C(C(=O)O)C1C(=O)O (centres undefined)	99	i	0.88	15	122	-0.4	-4
CCn1nnc2c(=O)oc3ccccc3c21	67	i	1	3	35	.	-5
COc1cc(C(=O)CSc2nnc(-c3ccc(O)cc3)n2CC2CCCO2)ccc1NC(C)=O (centres undefined)	94	i	1.3	0	98	0.6	4
Cc1nnc(C)n1/N=C/c1ccc(C(=O)O)cc1	107	i	1.1	-38	106	-1.2	-12
O=C(Nc1cccc(-c2cc3ccccc3oc2=O)c1)c1ccc(Br)o1	107	i	1.1	63	115	-0.4	0
CCOC(=O)c1sc(NC(=O)CN2CCCC2)c(C(=O)OCC)c1C	97	.	.	-53	82	-1.7	5
C/C(=N\NC(=S)Nc1c(C)cccc1C)c1ccc(O)cc1	107	i	0.88	.	.	.	.

An excerpt taken from the entries so far, for reference:
SMILES	RGS16-Gao	HSV augment	HSV augment primary fold	INS promoter inh	INS promoter inh cell count	GALR2 agonist	PKD1 inh
CC1C=CC(C)C(C(=O)O)C1C(=O)O (centres undefined)	99	i	0.88	15	122	-0.4	-4
CCn1nnc2c(=O)oc3ccccc3c21	67	i	1	3	35	.	-5
COc1cc(C(=O)CSc2nnc(-c3ccc(O)cc3)n2CC2CCCO2)ccc1NC(C)=O (centres undefined)	94	i	1.3	0	98	0.6	4
Cc1nnc(C)n1/N=C/c1ccc(C(=O)O)cc1	107	i	1.1	-38	106	-1.2	-12
O=C(Nc1cccc(-c2cc3ccccc3oc2=O)c1)c1ccc(Br)o1	107	i	1.1	63	115	-0.4	0

(listing goes on)
SMILES	RGS16-Gao	HSV augment	HSV augment primary fold	INS promoter inh	INS promoter inh cell count	GALR2 agonist	PKD1 inh
O=C(Cc1ccccc1F)Nc1nc(-c2cccs2)cs1	103	i	0.81	-6	109	-1.7	-17
O=C(Nc1nccs1)c1ccc(-c2ccc([N+](=O)[O-])cc2)o1	97	i	1.1	.	.	.	-2
O=C(NCc1ccccc1)Nc1cccn(Cc2ccc(Cl)cc2)c1=O	110	i	1.1	.	.	.	2
Nc1nc(-c2ccc(Br)cc2)cc(C(F)(F)F)n1	124	i	1	-28	79	-2.0	1
c1ccc(CN2CCN(c3ncnc4c3[nH]c3ccccc34)CC2)cc1	104	i	0.88	0	59	0.3	-14
O=c1c(-c2ccco2)[n+]([O-])c2ccccc2n1OCc1c(F)cccc1F	89	i	1.2	.	.	.	.
Cc1ccc(S(=O)(=O)CCC(=O)OCc2ccc(S(=O)(=O)C(C)C)cc2)cc1	98	i	0.95	.	.	.	2
COc1ccc(-c2cc(C3CCN(c4ccc(C(C)=O)cc4[N+](=O)[O-])CC3)[nH]n2)cc1	96	i	0.63	37	80	-0.1	-13
Fc1ccc(-c2csc3[n+]2CCS3)cc1	107	i	0.85	50	77	-1.5	2
Cn1c(=O)[nH]c(=O)c2c1nc1n2CC(COc2ccc3ccccc3c2)O1 (centres undefined)	97	i	1.1	.	.	.	.
Fc1cccc(CN2CCN3CCCC3C2C2CCCCC2)c1 (centres undefined)	104	i	1	-41	75	-2.7	2
O=C(O)c1cccc(N/N=C/c2cccnc2)c1	103	i	1	.	.	.	-4
CNC(=S)NCCc1ccc(OC)cc1	104	i	0.82	.	.	.	6
CNS(=O)(=O)c1ccc(C(C)(C)C)cc1	104	i	0.97	.	.	.	-2
CCCCNC(=O)Cn1c(=O)n(C)c2ccccc21	105	i	0.7	.	.	-0.7	-10
CCOC(=O)C1=C(C)Nc2sc(C(=O)c3ccc(Br)cc3)c(N)c2C1c1ccc(C(=O)OC)cc1 (centres undefined)	95	i	1.3	14	137	1.2	-10
CNC(=O)CN(c1cc(C)ccc1OC)S(=O)(=O)c1ccc(C)cc1	96	i	0.9	39	47	-1.0	0
COC(=O)C1CCN(Cc2ccc(OCCCN3CCN(c4ccc([N+](=O)[O-])cc4)CC3)cc2)CC1	104	i	0.99	.	.	.	-10
O=C(NCc1ccccc1)NC(O)C(Cl)(Cl)Cl (centres undefined)	108	i	0.96	41	198	.	-4
O=C(C1CCCCN1S(=O)(=O)c1ccccc1)N1CCCCC1 (centres undefined)	86	i	1.1	-22	79	-1.7	-11
O=C(/C=C/c1cccs1)N1CCC2(CC1)Oc1ccc(F)cc1C(=O)C21CC(c2ccc(Cl)cc2)=NO1 (centres undefined)	95	i	0.8	.	.	.	.
CCCC/C(O)=N\S(=O)(=O)c1ccc(N=NN(C)C)cc1	124	i	0.99	33	127	-2.1	-2
COCCOC(=O)c1c(NC(=O)CSc2cccc[n+]2[O-])sc(C(N)=O)c1C	101	i	0.91	.	.	.	-11
CC(C)C(C)NC(=O)COc1ccc(OCc2ccccc2)cc1 (centres undefined)	116	i	1.1	-52	97	.	4

Among those listed so far, these have bromine:
SMILES	RGS16-Gao	HSV augment	HSV augment primary fold	INS promoter inh	INS promoter inh cell count	GALR2 agonist	PKD1 inh
O=C(Nc1cccc(-c2cc3ccccc3oc2=O)c1)c1ccc(Br)o1	107	i	1.1	63	115	-0.4	0
Nc1nc(-c2ccc(Br)cc2)cc(C(F)(F)F)n1	124	i	1	-28	79	-2.0	1
CCOC(=O)C1=C(C)Nc2sc(C(=O)c3ccc(Br)cc3)c(N)c2C1c1ccc(C(=O)OC)cc1 (centres undefined)	95	i	1.3	14	137	1.2	-10

Further results
SMILES	RGS16-Gao	HSV augment	HSV augment primary fold	INS promoter inh	INS promoter inh cell count	GALR2 agonist	PKD1 inh
Cc1ccc(C2=C(c3ccc([N+](=O)[O-])cc3)C(=O)OC2)cc1C	96	i	1.1	.	.	.	2
CCOC(=O)N1CCN(Cc2nc(Cc3cccc(C(F)(F)F)c3)no2)CC1	100	i	1	.	.	.	9
CC(=O)c1ccc(NC(=S)NC(C)c2ccc(Cl)cc2Cl)cc1 (centres undefined)	113	i	0.84	27	112	.	-5
O=c1cc(-c2ccc([N+](=O)[O-])cc2)nc2cc(-c3ccc(Cl)cc3)[nH]n12	109	i	1.1	.	.	-2.3	4
CCS(=O)(=O)c1nc2ccccc2n1Cc1ccccn1	101	i	0.86	38	72	.	-3
CCSc1nnc(Cn2c(=O)sc3ccccc32)n1C	104	i	1.2	.	.	-1.2	-1
CC(C)Sc1nc2ccc(N3C(=O)C4CCCCC4C3=O)cc2s1 (centres undefined)	21*	i	1	47	64	0.1	0
CCCNC(=O)c1cnc(Sc2ncc(C(F)(F)F)cc2Cl)n1C	103	i	0.92	-9	104	4.9	6
O=C(CSc1ccc(-c2ccncc2)nn1)N1CCCC1	106	i	1	7	80	.	-1
O=C(COc1ccc(Cl)cc1)NCc1cn2cc(Cl)ccc2n1	93	i	1.2	3	133	.	-8
CC(=O)OCc1cc(=O)n(C)c(=O)n1C	101	i	0.88	28	84	-0.8	-5
O=C(CN1CCCCCC1)NCCN1C(=O)S/C(=C\c2ccccc2Cl)C1=O	102	i	0.88	21	128	.	-4
Cc1ccc2[nH]c3c(c2c1)CCc1cn[nH]c1-3	94	.	.	0	81	1.3	-9
COc1ccc2c(c1)C(=O)CC(c1ccccc1F)O2 (centres undefined)	86	.	.	-6	134	-4.8	-5
CC1CCN(C(=O)CSc2nc(N)cc(N)n2)CC1	102	i	0.93	25	107	0.2	12
Cc1cc(=O)n2c(C(=O)Nc3ccc(C)c(C)c3)c(C(=O)Nc3ccccc3)sc2n1	100	i	0.99	31	120	.	5
COc1ccc(-c2noc(C)c2-c2ccc3ccccc3n2)c(O)c1	97	i	0.92	21	71	-2.8	2
Cc1cccc(NC(=O)CSc2nnc(CCNC(=O)OC(C)(C)C)o2)c1C	94	i	0.97	.	.	.	.
Cc1sc2nc(CN3CCOCC3)nc(Oc3ccc(NC(=O)c4ccco4)cc3)c2c1C	101&100	i	1.1	.	.	-0.2	-5
CC(C)C(=O)NC(c1ccc(N(C)C)cc1)c1c(O)ccc2ccccc12 (centres undefined)	97	i	0.96	.	.	.	.
CCC1CCCCN1CCCNC(=O)Cn1nc(-c2ccccc2)ccc1=O (centres undefined)	180	i	1.1	.	.	-0.8	-8
Cc1ccc2c(CC(=O)OCc3csc(C)n3)coc2c1	101	i	0.89	-7	110	-1.8	10
CCCn1nnc(NC(=O)c2ccc(-c3ccccc3)cc2)n1	99	.	.	-8	190	0.8	-11
CCOC(=O)c1ccc(CSc2nnc(N)s2)cc1	99	i	0.82	53	129	1.0	-1
Cc1cc(-c2nc3cccnc3s2)ccc1NS(=O)(=O)c1cccs1	101	i	0.88	.	.	.	-4
Cc1cc(NCCCn2ccnc2)n2nc(-c3ccc(F)cc3)cc2n1	98	i	0.75	.	.	-1.6	-10
CCNc1nc(-c2ccc(Cl)cc2)cs1	91	i	0.98	22	102	0.2	-9
O=C(O)CSc1c2c(nc3cc(C(=O)N4CCCC4)ccc13)CCCC2	100	i	0.98	-21	80	.	0
COC(=O)c1cn(-c2ccccc2)nc1-c1ccncc1	70	i	1	16	85	-3.7	-9
O=C(CSc1nnc(COc2ccc(Cl)cc2)o1)OC1CCCCC1	89	i	0.92	-5	69	1.2	2
CC(C)CC1c2[nH]c3ccccc3c2CCN1C(=O)c1cnccn1 (centres undefined)	101	i	0.95	.	.	.	-4
O=C1CC(c2ccco2)Sc2nc3ccccc3n21 (centres undefined)	103	i	1	-27	176	-0.8	-6
COc1ccc(CN(C)CC(=O)NC(=O)NCc2ccccc2)c(OC)c1	161	i	0.7	31	89	-0.1	3
COc1ccc(-n2nc([N+](=O)[O-])c(=NCCc3cccc(C)c3)n2O)cc1	101	i	0.93	27	88	.	-5
Cc1ccc(OCCOCCNC(C)C)c(Br)c1	93	i	0.96	0	155	-3.2	9
N#C/C(=C\c1cccs1)C(=O)NCc1ccco1	105	i	1.1	23	124	-0.3	-13
COc1ccc(Cc2noc(CN(C)C3CC(C)(C)NC(C)(C)C3)n2)cc1OC	96	i	1.1	.	.	.	-8
CCc1cccc(C)c1NC(=O)c1cccc(N(C)C)c1	46	i	1	-24	77	-4.1	-8
CCN(CC)c1ccc(C2NCC(c3ccc([N+](=O)[O-])cc3)O2)cc1 (centres undefined)	98	i	0.95	29	106	-2.3	-7
O=C(c1ccc(Cl)cc1)c1c[nH]cc1-c1ccccc1	103	i	0.87	-475	64	-0.7	-1
COc1c(C)cc(C(=O)C2CCCN(S(=O)(=O)c3c(C)noc3C)C2)cc1C (centres undefined)	110	i	0.98	.	.	.	12
CN(C)C=Nc1ccc(Cl)c(Cl)c1	98	i	1.1	.	.	.	.
CCOC(=O)N1CCC(NC(=O)C(Cc2ccccc2)NC(=O)C2CCCCC2)CC1 (centres undefined)	108	i	0.93	-23	95	-4.0	-5
CC(=O)c1c(C)[nH]c(C(=O)NCc2ccc(C)cc2)c1C	102	i	0.87	-3	132	1.4	-3
O=C(COC(=O)CNS(=O)(=O)c1c(Cl)cccc1Cl)Nc1cccnc1Cl	101	i	0.92	23	115	-1.7	2
Cc1ccc(S(=O)(=O)C(CCC(=O)c2ccc(Cl)cc2)C(N)=O)cc1 (centres undefined)	105	i	0.65	6	72	-1.3	5
CCc1n[nH]c2c1/C(=N/O)CCC2	105	i	0.93	.	.	0.1	-3
S=C(Nc1ccccc1)N1CCC(C2CCN(C(=S)Nc3ccccc3)CC2)CC1	99	i	1	.	.	.	.
O=C(CN1C(=O)NC2(CCCC2)C1=O)Nc1ccccc1-c1ccccc1	102	i	0.98	.	.	.	.
COc1ccc(-c2noc(-c3ccccc3C(=O)N3CCOCC3)n2)cc1	86	i	0.99	-53	134	-2.0	-2
CCCCn1cnc2c(cnn2-c2ccc(F)cc2)c1=O	105	i	0.99	.	.	-1.4	0
Cc1nnc(SCC(=O)Nc2ncc(Cl)cc2Cl)n1Cc1ccccc1	102	i	0.94	-28	145	-1.5	-2
CCOc1ccc(-n2c(SCc3ccc(C#N)cc3)nnc2-c2cccnc2)cc1	98	i	0.92	.	.	0.9	-2

High-throughput results: PubChem, several laboratories

This is a random part of the collection; overall some 1.1% were active at least once.
